High-throughput results (PubChem)
PV pol inh: inhibitors of poliovirus RNA polymerase binding and polymerization; % elongation, % (compound at 16.7 µg/mL); actives 0.66% (n = 150,000); P03300; AID 588519; poliovirus polymerase elongation, fluorescence polarization; stronger effect = lower value; in the data active = % elongation below about 90%; note: some results filed as inactive read as strong as hits
Target sequence (P03300 1749-2209 limits assumed): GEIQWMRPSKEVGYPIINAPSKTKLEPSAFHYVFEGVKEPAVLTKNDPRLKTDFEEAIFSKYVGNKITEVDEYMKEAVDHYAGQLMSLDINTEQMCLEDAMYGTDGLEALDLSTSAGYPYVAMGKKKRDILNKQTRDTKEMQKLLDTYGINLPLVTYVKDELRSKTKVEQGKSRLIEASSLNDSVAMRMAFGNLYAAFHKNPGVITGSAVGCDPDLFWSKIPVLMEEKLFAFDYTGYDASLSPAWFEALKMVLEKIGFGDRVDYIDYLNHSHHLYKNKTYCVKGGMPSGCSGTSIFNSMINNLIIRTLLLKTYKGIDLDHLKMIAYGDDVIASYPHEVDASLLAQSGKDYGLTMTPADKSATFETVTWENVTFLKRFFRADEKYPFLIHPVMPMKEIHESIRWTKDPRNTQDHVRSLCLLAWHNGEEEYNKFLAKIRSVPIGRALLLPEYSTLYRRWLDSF
PV pol inh intensity: further read-out of PV pol inh, marked with its call; % elongation; measured here: total intensity read-out; formula for this scale not given here;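 total fluorescence in place of polarization; lower means less elongation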
The depositor's hits bear a star.

SMILES	PV pol inh	PV pol inh intensity
CCOc1ccc(-c2cc(-c3nc(-c4ccc(OC)c(OC)c4)no3)[nH]n2)cc1	102	111
COc1ccc(-n2c(=O)c3c4c(sc3n(Cc3ccc(F)cc3)c2=O)CCCC4)c(OC)c1	106	110
O=C(NCc1cccs1)c1ccc(CSc2nc3cccnc3n2Cc2ccc(F)cc2)cc1	109	105
CCOc1ccc(NC(=O)CSc2nc3c(oc4ccccc43)c(=O)n2-c2cc(C)cc(C)c2)cc1	102	106
CCOc1ccc(C(=O)NCC(c2ccco2)S(=O)(=O)c2cccs2)cc1 (stereo not given)	103	111
COc1ccc(CNC(=O)c2ccc(NC(=O)N3CCCCc4ccccc43)cc2)cc1	100	100
O=C(CSc1nnc2scc(-c3ccc(Cl)cc3)n12)Nc1ccccc1F	104	108
Cc1ccc(S(=O)(=O)NCCc2nnc3ccc(SCc4ccccc4C)nn23)cc1	100	105
CCOC(=O)CCN(Cc1ccccc1)S(=O)(=O)c1csc(C(N)=O)c1	111	109
COc1ccc2[nH]cc(CCN=C(NC(=O)c3ccccc3C)Nc3nc(C)cc(C)n3)c2c1	108	105
COC(=O)c1cc(NC(=O)C2CCCN(S(=O)(=O)c3c(C)n[nH]c3C)C2)cc(C(=O)OC)c1 (stereo not given)	102	102
Cc1oc(-c2ccccc2F)nc1CN1CCC(C(=O)NCCc2ccccc2)CC1	109	112
Cc1cccc(N(CC(=O)NCCSCc2ccc(Cl)cc2)S(C)(=O)=O)c1C	105	110
Fc1ccccc1Oc1ncnc2c1oc1ccccc12	103	110
CCOc1ccc(S(=O)(=O)N(CC(=O)Nc2ccc3c(c2)OCO3)c2ccc(C)cc2)cc1	104	104
CCCN1C(=O)C(NC(=O)c2ccccc2OC)(C(F)(F)F)C(C(=O)OC)=C1C (stereo not given)	107	111
Cc1ccc(CCNC(=O)NCc2noc3ccccc23)cc1	108	98
Cc1ccc(-n2nc(C(=O)N(C)Cc3ccccc3)c3c4ccccc4n(C)c3c2=O)cc1	106	104
NS(=O)(=O)c1ccc2nc(NC(=O)COc3ccc(Cl)cc3Cl)sc2c1	109	111
COc1ccccc1CNC(=O)CCc1c(C)nn(-c2ccc(N3CCCCC3)nn2)c1C	109	108
O=C(Nc1sc2c(c1C(=O)N1CCCCC1)CCCC2)c1ccccc1Cl	105	107
Cc1cccc(Cn2c(SCc3ccc(C(=O)NC4CCCCC4)cc3)nc3cccnc32)c1	110	113
COc1cccc(CNC(=O)C2Cc3cc(S(=O)(=O)N4CCCCCC4)ccc3N2C(C)=O)c1 (stereo not given)	112	112
c1coc(-c2nc3ccccn3c2Nc2ccc3c(c2)OCCO3)c1	107	111
CCOC(=O)C(C)Sc1nc(-c2ccccc2Cl)cc(-c2ccccc2)c1C#N (stereo not given)	107	111
Cc1ccc(OCCn2c(CCNC(=O)C3CCCCC3)nc3ccccc32)cc1	111	112
O=C(CSc1ncc(S(=O)(=O)c2ccc(Br)cc2)c(=O)[nH]1)NCc1ccccc1Cl	105	114
COc1ccccc1N1CCN(C(=O)c2c3c(nc4ccccc24)C(=O)N(C2CCCCC2)C3)CC1	114	120
CC1CCN(S(=O)(=O)c2cc(C(=O)NCc3ccccc3)n(C)c2)CC1	112	108
O=S(=O)(Nc1ccc(Br)cc1F)c1ccc2nc(-c3ccccc3)[nH]c2c1	112	113
O=C(c1cccs1)c1cn(CCOc2ccccc2F)c2ccccc12	104	103
CCOc1ccc2ncc3c(-c4cccc(OC)c4)nn(-c4ccccc4)c3c2c1	106	106
Cc1ccccc1-n1nc(CO)c(C(=O)NCc2cccs2)n1	100	106
CCc1c(C)c2ccc(O)c(CN3CCN(c4ccc(F)cc4)CC3)c2oc1=O	113	109
COc1ccccc1N1CCN(c2csc3ccccc3c2=O)CC1	104	103
COCCNC(=O)CCCN1C(=O)CCn2nc(-c3cccn3C)cc21	103	99
Oc1c(C(Nc2ccccn2)c2ccccc2F)ccc2cccnc12 (stereo not given)	115	123
Cc1ccc(NS(=O)(=O)c2ccc3oc(=O)c4ncn(C)c4c3c2)cc1C	103	105
COc1cc(Cl)c(C)cc1NC(=O)CSc1nc2c(c(=O)[nH]1)CCC2	112	111
CCOC(=O)C(CC)Sc1ncnc2c1c(-c1ccccc1)cn2-c1ccc(OC)cc1 (stereo not given)	105	102
O=C(Cn1c(=O)n(-c2ccccc2Cl)c(=O)c2sc3ccccc3c21)NC1CCCCC1	108	106
CCOc1ccc(NC(=O)Nc2c(C)n(C)n(-c3ccccc3)c2=O)cc1	105	106
COC(=O)c1ccc2c(c1)N(Cc1cc(C)ccc1C)C(=O)c1ccccc1S2(=O)=O	102	108
COc1ccc(NC(=O)Cn2c(=O)n(Cc3nc(-c4ccccc4)no3)c(=O)c3cc4c(cc32)OCO4)c(OC)c1	111	110
O=C(Nc1ccc(Br)cc1)c1cc(S(=O)(=O)NC2CCCC2)ccc1F	104	109
CCOc1ccc(S(=O)(=O)N2CCN(c3ccc(C)cc3C)CC2)c2ccccc12	104	109
CCC(Oc1ccc(F)cc1)C(=O)Nc1nc2c(s1)CCCC2 (stereo not given)	105	105
COc1cc(OC)cc(-c2nc3nc(C)c(CCC(=O)Nc4ccc(Cl)cc4)c(C)n3n2)c1	104	104
COc1ccccc1NC(=O)C(=O)NCCc1csc(-c2cccc(F)c2)n1	98	98
CC(C)c1ccc(NC(=O)c2ccc(F)c(S(=O)(=O)N3CCc4ccccc4C3)c2)cc1	105	106
COc1ccc(CC(=O)Nc2cc(-c3cn4cccnc4n3)ccc2OC)cc1	106	102
COc1cccc(NC(=O)C2CCN(c3ccc(Sc4ccc(C)cc4)nn3)CC2)c1	102	101
CCCCN(C)CCNC(=O)C1CCN(c2nc3ccc(CC)cc3s2)CC1	108	109
Cc1ccc(-n2ncc(C(=O)NCc3ccc4c(c3)OCO4)c2C2CCN(C(=O)OC(C)(C)C)CC2)c(C)c1	114	113
CCN(c1ccc(OC)cc1)S(=O)(=O)c1nnc(NC(=O)COc2ccc(F)cc2)s1	103	112
CCOC(=O)c1c(C)[nH]c(C)c1S(=O)(=O)N1CCCC(C(=O)Nc2ccccc2OCC)C1 (stereo not given)	-7.0*	20*
COc1cccc(-c2nnc(-c3ccccc3NC(=O)c3cccc(C(F)(F)F)c3)o2)c1	104	106
Cn1c(=O)oc2cc(S(=O)(=O)Nc3ccc(O)cc3)ccc21	107	111
Cc1ccc(CN2C(=O)C(O)(c3c[nH]c4ccccc34)c3cc(Cl)ccc32)cc1 (stereo not given)	108	110
CCc1nc2nc(C)cc(Nc3cc(C)ccc3C)n2n1	110	111

(further entries)
SMILES	PV pol inh	PV pol inh intensity
CCOC(=O)c1ccccc1NC(=O)CSc1cn(CC(=O)N2CCOCC2)c2ccccc12	108	104
COc1ccccc1N1CCN(S(=O)(=O)c2ccc(-c3cc(C(F)(F)F)on3)s2)CC1	105	105
N#C/C(=C/c1ccccc1Cl)c1nc(-c2cc3ccccc3oc2=O)cs1	103	109
CC(C)(C)OC(=O)N1CCC(N2CCN(Cc3ccccc3)C(=O)C2=O)CC1	109	109
COc1ccc(NC(=O)C2(S(=O)(=O)c3ccc(C)cc3)CC2)c(OC)c1	110	113
COC(=O)c1ccc(NC(=O)CC2C(=O)N(c3cccc(OC)c3)C(=O)N2Cc2cccc(OC)c2)cc1 (stereo not given)	111	114
Oc1c(C(c2ccccc2Cl)N2CCOCC2)sc2nc(-c3ccco3)nn12 (stereo not given)	110	110
Cc1cccc(CS(=O)(=O)Cc2ccc(C(=O)NCc3ccc(Cl)cc3)o2)c1	107	105
O=C(CSc1nc(=O)n(Cc2ccco2)c2c1CCC2)NCc1ccccc1	107	109
Cc1nn2c(C)c(C(=O)NC(C)(C)C)cnc2c1-c1ccc(F)cc1	105	104
COc1cc2nc(NCCc3cccc(C)c3)n3nc(-c4ccccc4)nc3c2cc1OC	105	104
COC(=O)c1ccc(Cl)cc1NC(=O)Nc1nnc(N(C)Cc2ccccc2)s1	110	114
O=C(Nc1nc2n(n1)C(c1ccc(Cl)cc1)C=C(c1ccccc1)N2)c1ccco1 (stereo not given)	100	159
Cc1cccc(-n2nnnc2S(C)(=O)=O)c1	104	105
O=C(O)Cc1sc(Nc2ccccc2Cl)nc1-c1ccccc1	106	110
COc1ccc(-c2noc(CSCC(=O)Nc3cccc(C(F)(F)F)c3)n2)cc1OC	100	105
CCOc1ccc(S(=O)(=O)NCC(c2ccc(N(C)C)cc2)N2CCc3ccccc32)cc1 (stereo not given)	110	111
CC1CCc2nc3ncn(Cc4ccccc4F)c(=O)c3cc2C1 (stereo not given)	104	109
COc1ccccc1N1CCN(C(=O)C2CCN(S(=O)(=O)c3cccs3)CC2)CC1	101	106
O=C(CCn1nc(-c2ccccc2)c2ccccc2c1=O)Nc1ccccc1	106	104
CCCCN(CCCC)CCNC(=O)CN1C(=O)CSc2ccc(S(=O)(=O)N3CCCCC3)cc21	105	104
CCc1nn(CC(=O)NCCCN(CC(C)C)CC(C)C)c(=O)c2cc3sc(C)cc3n12	105	103
O=C(Cn1nc2c(cc1=O)CCCC2)NCc1ccc(Cl)cc1	99	106
CCc1ccc(-c2nn(CC(=O)NCc3ccccc3)c3c2cnc2ccc(C)cc23)cc1	108	111
O=C(CSc1nccn1Cc1ccco1)Nc1cc(C(F)(F)F)ccc1Cl	105	112
CC(=O)Nc1cc(-c2nc3cc(Cl)ccc3o2)ccc1C	105	105
O=C(CS(=O)(=O)c1cccc2nsnc12)NCc1ccc(Cl)cc1	105	96
COc1cccc2c1Oc1ncccc1N(C(=O)CCC(=O)NC(C)C)C2	108	106
CCc1ccccc1NC(=O)c1cnn(-c2ccc(F)cc2)c1C1CCNCC1	102	99
COc1ccc(OC)c(-c2cc(C(=O)NCCc3ccccc3)c3c(-c4ccc(C)cc4)[nH]nc3n2)c1	104	108

Not a retest: an excerpt of the list.
SMILES	PV pol inh	PV pol inh intensity
CCOc1ccc(-c2cc(-c3nc(-c4ccc(OC)c(OC)c4)no3)[nH]n2)cc1	102	111
COc1ccc(-n2c(=O)c3c4c(sc3n(Cc3ccc(F)cc3)c2=O)CCCC4)c(OC)c1	106	110
O=C(NCc1cccs1)c1ccc(CSc2nc3cccnc3n2Cc2ccc(F)cc2)cc1	109	105
CCOc1ccc(NC(=O)CSc2nc3c(oc4ccccc43)c(=O)n2-c2cc(C)cc(C)c2)cc1	102	106
CCOc1ccc(C(=O)NCC(c2ccco2)S(=O)(=O)c2cccs2)cc1 (stereo not given)	103	111
COc1ccc(CNC(=O)c2ccc(NC(=O)N3CCCCc4ccccc43)cc2)cc1	100	100

The list goes on.
SMILES	PV pol inh	PV pol inh intensity
COc1ccc(N(Cc2cccs2)C(=O)c2ccccc2C)cc1	107	105
CC(CNC(=O)c1ccc(Nc2nc3ccccc3n3nnnc23)cc1)c1ccccc1 (stereo not given)	109	117
Cc1ccc(CN2C(=O)CN(C3CCC(C)CC3)C(=O)C2c2ccc(F)cc2)cc1 (stereo not given)	107	100
COc1ccccc1CNC(=O)CCn1c(=O)c2cccn2c2cccnc21	103	109
Cc1ccc(C)c(N2CCN(C(=O)c3cccn4c(=O)c5ccccc5nc34)CC2)c1	100	106
COc1ccc(NC(=O)Cn2nnc3sc4c(c3c2=O)CCCC4)cc1	99	101
O=C(NCc1ccc(F)cc1)c1cnc(N2CCOCC2)c2ccccc12	112	109
CC(=O)c1ccc(N2CCN(c3ncnc4onc(-c5ccc(Cl)cc5)c34)CC2)cc1	106	112
CCc1ccc(NC(=O)CN2C(=O)C3(SCC(=O)N3c3ccccc3)c3ccccc32)cc1 (stereo not given)	107	101
COc1cc2c(cc1OC)C(COc1ccc3c(C)cc(=O)oc3c1)N(C(=O)c1ccc(C)c(C)c1)CC2 (stereo not given)	107	110
COc1ccc(N2CCN(C(=O)Nc3ccccc3Cl)CC2)cc1	103	99
COc1ccc(NC(=O)CSc2nnc(-c3nnn(-c4ccc(F)cc4)c3C)o2)cc1	103	110
COc1ccc(CCNC(=O)c2cc(-c3ccc(C)cc3)nc3n[nH]c(-c4ccccc4)c23)cc1OC	109	102
Cc1ccc(-c2cc(C(=O)O)n(Cc3ccccc3)n2)cc1	109	108
Cc1ccccc1Nc1cc(C(=O)NCc2cccs2)c2ccccc2n1	110	108

2 entries picked at random from the list so far, as already listed:
SMILES	PV pol inh	PV pol inh intensity
Cc1ccc(CN2C(=O)CN(C3CCC(C)CC3)C(=O)C2c2ccc(F)cc2)cc1 (stereo not given)	107	100
COc1cc2c(cc1OC)C(COc1ccc3c(C)cc(=O)oc3c1)N(C(=O)c1ccc(C)c(C)c1)CC2 (stereo not given)	107	110

More entries.
SMILES	PV pol inh	PV pol inh intensity
Cc1c(NS(=O)(=O)c2ccc(Cl)cc2)c(=O)n(-c2ccccc2)n1C	108	109
COc1ccc(S(=O)(=O)NCC(c2ccco2)N2CCN(c3ccc(F)cc3)CC2)cc1 (stereo not given)	105	109
Cc1cc(C)c(/C=C/c2onc(C)c2S(=O)(=O)N2CCC(C(=O)NCc3ccccc3Cl)CC2)c(C)c1	110	112
Cc1ccc(NC2=CC(c3ccccc3F)N(c3ccc(C)cc3)C2=O)cc1 (stereo not given)	108	109
CCc1ccc(-n2nc(C)c3c(C)cc(=O)n(Cc4nc(-c5ccccc5)oc4C)c32)cc1	115	105
Cc1cn2c(=O)cc(COC(=O)COc3ccc(C)c(C)c3)nc2s1	110	109
CCc1ccc(C2c3c(oc4cc(C)c(C)cc4c3=O)C(=O)N2c2nc(C)c(C(=O)OC)s2)cc1 (stereo not given)	102	101
COC(=O)CN1C(=O)CSc2ccc(S(=O)(=O)Nc3cccc(C)c3)cc21	101	105
Cc1ccc2c(c1)sc1nc(=O)n(-c3cccc(Cl)c3)c(=O)n12	107	112

An excerpt; count on the stated rates, not on these rows.
